# Source: PubChem BioAssay
# Polio RdRp inh – poliovirus RdRp elongation inhibitors, primary screen, biochemical, fluorescence polarization, total intensity | poliovirus polymerase elongation; stronger effect = lower value | 150,000 compounds, 0.66% hits | % elongation, % (compound at 16.7 µg/mL) | AID 588519, 2011 | Genome polyprotein (Poliovirus type 1 (strain Mahoney)), P03300; in the data active = % elongation below about 90%; also: some results filed as inactive read as strong as hits
# Target sequence (P03300 1749-2209 limits assumed): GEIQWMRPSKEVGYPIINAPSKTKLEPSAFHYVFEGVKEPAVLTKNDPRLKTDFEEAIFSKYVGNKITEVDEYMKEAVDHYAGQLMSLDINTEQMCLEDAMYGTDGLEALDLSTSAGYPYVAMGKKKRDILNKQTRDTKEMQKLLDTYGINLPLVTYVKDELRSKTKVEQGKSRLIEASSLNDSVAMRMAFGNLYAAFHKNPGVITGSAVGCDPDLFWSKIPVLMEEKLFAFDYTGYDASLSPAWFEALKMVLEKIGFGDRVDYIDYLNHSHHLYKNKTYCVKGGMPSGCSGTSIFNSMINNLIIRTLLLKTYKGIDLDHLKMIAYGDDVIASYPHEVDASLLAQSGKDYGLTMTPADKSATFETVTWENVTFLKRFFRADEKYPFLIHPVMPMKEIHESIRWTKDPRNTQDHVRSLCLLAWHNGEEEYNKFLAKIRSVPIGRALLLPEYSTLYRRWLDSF
# Polio RdRp inh intensity – second read-out of Polio RdRp inh, no call of its own (marks repeat the call); % elongation; measured here: total intensity read-out; formula for this scale not given here;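 total fluorescence in place of polarization; lower means less elongation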
# Starred values were filed as active, the others as inactive. These rows are one share of the data; rates above refer to the full screens.
> Cc1cccc(NC(=O)CSC2=Nc3ccccc3C3=NC(CC(=O)NCc4cccs4)C(=O)N23)c1 (centres undefined)
- Polio RdRp inh: 115
- Polio RdRp inh intensity: 114
> O=C(Cn1cnc2nc3c(cc2c1=O)CCCC3)N1CCN(c2cccc(C(F)(F)F)c2)CC1
- Polio RdRp inh: 105
- Polio RdRp inh intensity: 107
> CCCS(=O)(=O)N1CCCC(C(=O)NCCOC)C1 (centres undefined)
- Polio RdRp inh: 117
- Polio RdRp inh intensity: 124
> COc1cc2c(cc1OC)n(CC(=O)Nc1ccccc1)c(=O)n1nc(-c3ccccc3)nc21
- Polio RdRp inh: 104
- Polio RdRp inh intensity: 108
> CCOC(=O)c1c(SCC(=O)Nc2cc(Cl)cc(Cl)c2)nc(=O)[nH]c1C
- Polio RdRp inh: 103
- Polio RdRp inh intensity: 111
> O=C(CCn1c(=O)c2sccc2n(Cc2ccc(F)cc2)c1=O)NCc1ccc2c(c1)OCO2
- Polio RdRp inh: 109
- Polio RdRp inh intensity: 114
> CCOc1ccc(NC(=O)c2c(NC(=O)c3cccc(C)c3)sc3c2CCC3)cc1
- Polio RdRp inh: 98
- Polio RdRp inh intensity: 98
> Cc1ccc(-c2cc(C(=O)OCC(=O)c3ccccc3)c3cccc(Cl)c3n2)cc1
- Polio RdRp inh: 103
- Polio RdRp inh intensity: 107
> CCOc1ccc(CNC(=O)C2CCCN(S(=O)(=O)c3ccc4c(ccn4C)c3)C2)cc1 (centres undefined)
- Polio RdRp inh: 111
- Polio RdRp inh intensity: 117
> CCC(=O)N1CCc2cc(S(=O)(=O)NC(Cc3ccccc3)C(=O)Nc3ccc(Cl)cc3)ccc21 (centres undefined)
- Polio RdRp inh: 105
- Polio RdRp inh intensity: 106

# No new results follow: an excerpt of the list.
> CCOc1ccc(NC(=O)c2c(NC(=O)c3cccc(C)c3)sc3c2CCC3)cc1
- Polio RdRp inh: 98
- Polio RdRp inh intensity: 98
> Cc1ccc(-c2cc(C(=O)OCC(=O)c3ccccc3)c3cccc(Cl)c3n2)cc1
- Polio RdRp inh: 103
- Polio RdRp inh intensity: 107
> CCOc1ccc(CNC(=O)C2CCCN(S(=O)(=O)c3ccc4c(ccn4C)c3)C2)cc1 (centres undefined)
- Polio RdRp inh: 111
- Polio RdRp inh intensity: 117
> CCC(=O)N1CCc2cc(S(=O)(=O)NC(Cc3ccccc3)C(=O)Nc3ccc(Cl)cc3)ccc21 (centres undefined)
- Polio RdRp inh: 105
- Polio RdRp inh intensity: 106

# Remaining list, next part
> Cc1ccc2cc(CN(C(=O)c3cccc(Cl)c3)c3ccccc3)c(=O)[nH]c2c1
- Polio RdRp inh: 126
- Polio RdRp inh intensity: 124
> COC(=O)c1ccc(NC(=O)N2CCc3c([nH]c4ccccc34)C2c2ccc(C)cc2)cc1 (centres undefined)
- Polio RdRp inh: 104
- Polio RdRp inh intensity: 102
> CCCc1cc(=O)n2c(C(=O)Nc3ccc(OCC)cc3)c(C(=O)Nc3ccc(C)cc3)sc2n1
- Polio RdRp inh: 107
- Polio RdRp inh intensity: 97
> CC(=O)N1CCc2cc(Br)cc(S(=O)(=O)N3CCC(C(=O)N(C)c4cc(C)ccc4C)CC3)c21
- Polio RdRp inh: 109
- Polio RdRp inh intensity: 110
> CCOC(=O)C1CCN(c2c(C(=O)c3ccc(OCC)cc3)cnc3ccc(OC)cc23)CC1
- Polio RdRp inh: 106
- Polio RdRp inh intensity: 108
> CCCC12CN3CC(C)(CN(C1)C3c1ccccn1)C2=O (centres undefined)
- Polio RdRp inh: 121
- Polio RdRp inh intensity: 123
> Cc1cc(=O)n2nc(N3CCC(C(=O)NCc4ccccc4Cl)CC3)sc2n1
- Polio RdRp inh: 113
- Polio RdRp inh intensity: 111
> Cc1cccc(-n2c(SCC(=O)Nc3ccccc3C)nc3c(oc4ccccc43)c2=O)c1
- Polio RdRp inh: 107
- Polio RdRp inh intensity: 110
> CCc1ccc(C(=O)c2cn(CC(=O)Nc3ccc(F)cc3)c3cc4c(cc3c2=O)OCO4)cc1
- Polio RdRp inh: 110
- Polio RdRp inh intensity: 106
> CCCc1cc(=O)n2[nH]c(-c3ccc(C)cc3)nc2n1
- Polio RdRp inh: 116
- Polio RdRp inh intensity: 114
> Cc1ccc(-n2c(=O)c3cccnc3n2CC(=O)NCc2ccc(F)cc2)cc1C
- Polio RdRp inh: 109
- Polio RdRp inh intensity: 111

# Record cards, from the list above:
# Cc1cc(=O)n2nc(N3CCC(C(=O)NCc4ccccc4Cl)CC3)sc2n1 is entered as Polio RdRp inh: 113; Polio RdRp inh intensity: 111
# Cc1cccc(-n2c(SCC(=O)Nc3ccccc3C)nc3c(oc4ccccc43)c2=O)c1 is entered as Polio RdRp inh: 107; Polio RdRp inh intensity: 110
# CCCc1cc(=O)n2c(C(=O)Nc3ccc(OCC)cc3)c(C(=O)Nc3ccc(C)cc3)sc2n1 is entered as Polio RdRp inh: 107; Polio RdRp inh intensity: 97
